YB-1 expr inh: YB-1 expression inhibition | U2OS, qRT-PCR YB-1 vs CDIP delta delta Cp, 16 h; hits give high values; zero = DMSO, each unit about twofold | delta delta Cp (YB-1 minus CDIP) (concentration not given with the values) | actives 0.37% (n = 30,000);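 active = delta delta Cp rounded down to an integer at or above 3, about 3 SD of DMSO wells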;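 note: higher means less YB-1 transcript or more CDIP transcript relative to DMSO; stock transfer was 100 nL into about 100 µL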
MITF inhib: blocks MITF activity | TRPM1 promoter luciferase, luminescence, 24 h | inhibition, % (test concentration not listed) | actives 0.28% (n = 37,000);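 active = most replicates at 85% or more, or half of them and the mean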;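 note: human melanocyte line stably carrying TRPM1 promoter luciferase reporter; 0% = vehicle wells and 100% = a positive control; the first replicate is given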
PD-1 reverse act: activators reversing PD-1 mediated T-cell inhibition; primary human CD4 T cells, PD-L1 beads, CellTiter-Glo 96 h; activation, % (test concentration not listed); 29,000 tested, under 10 active; AID 2316;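 active = replicate mean of 50% or more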;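 note: 0% = median vehicle wells and 100% = positive control; 100 nL library stock added to about 50 µL; numbers are from one replicate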
Shh pathway inh: Sonic Hedgehog pathway inhibition | Shh-LIGHT2 Gli-luciferase reporter, 30 h | inhibition, % (no concentration beside the values) | actives 2.1% (n = 22,000) | AID 2313;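 active = replicate mean of 65% or more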;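 note: pathway switched on by Shh-conditioned medium diluted 1 in 25 in low serum; 100 nL library stock added to about 40 µL; 0% = median of neutral wells and 100% = positive control level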
The depositor's hits bear a star; x = not tested or not shown.

SMILES | YB-1 expr inh | MITF inhib | PD-1 reverse act | Shh pathway inh
C[C@@H]1CN([C@@H](C)CO)C(=O)c2cc(NC(=O)Nc3ccc(F)cc3)ccc2O[C@H]1CN(C)Cc1ccc2c(c1)OCO2 | -0.073 | -3 | 0.6 | x
O=C(CSc1nc2cc(Cl)ccc2s1)Nc1ccc2c(c1)OCCO2 | x | -33 | 1.2 | x
CN(CC(=O)Nc1ccccc1C(=O)N1CCCC1)S(=O)(=O)c1ccc(Cl)cc1 | x | 15 | -0.4 | x
COc1ccc(C)cc1N(CC(=O)Nc1ccc(I)cc1C)S(C)(=O)=O | x | 1 | 0.6 | x
O=C(COc1ccc(Br)cc1)Nc1cc(C(F)(F)F)ccc1N1CCOCC1 | x | -1 | -1.8 | x
CSc1nnc(-c2ccc(S(=O)(=O)n3nc(C)cc3C)s2)n1C | -0.13 | 0 | -3.2 | -8
C[C@@H]1CCCCO[C@@H](CN(C)Cc2ccc(C(=O)Nc3ccccc3N)cc2)[C@@H](C)CN([C@H](C)CO)C(=O)c2cc(NS(=O)(=O)c3cccs3)ccc2O1 | -0.16 | 15 | -0.2 | x
CCNc1nc(NCC)nc(OCCOC(C)=O)n1 | 0.63 | 13 | -0.2 | x
C[C@@H]1CN([C@H](C)CO)C(=O)c2cc(NC(=O)Nc3ccccc3)ccc2O[C@H]1CN(C)Cc1ccc(-c2ccccc2)cc1 | -0.13 | 6 | -12 | x
COC(=O)c1ccc(NC(=O)C2CCN(S(=O)(=O)c3cc(C)ccc3OC)CC2)cc1 | x | 21 | 1.2 | x
COc1ccccc1/C=C(\C#N)c1ccc(C)cc1 | -0.37 | -1 | -0.8 | -79
C[C@@H]1CN([C@@H](C)CO)C(=O)c2cccc(NC(=O)c3nc4ccccc4s3)c2O[C@@H]1CN(C)Cc1ccccc1 | 0.45 | 1 | -4.8 | 42
C[C@H](CO)N1C[C@H](C)[C@@H](CN(C)S(=O)(=O)c2cn(C)cn2)Oc2ccc(NS(=O)(=O)c3cccs3)cc2C1=O | -0.27 | -1 | 1.3 | -14
C[C@H]1CN([C@@H](C)CO)C(=O)c2cc(NC(=O)Nc3ccc(C(F)(F)F)cc3)ccc2O[C@@H]1CN(C)Cc1ccc(-c2ccccc2)cc1 | -0.11 | 1 | -0.6 | x
O=C(COc1ccc(CO)cc1)Nc1ccccc1 | x | -79 | 3.8 | x
O=C(CN1CCc2ccccc21)Nc1nnc(-c2cccs2)s1 | -0.18 | -12 | -1.2 | -17
Cn1c(SCC(=O)Nc2ccccc2F)nnc1-c1ccccc1 | x | -6 | -0.1 | x
C[C@H](CO)N1C[C@H](C)[C@H](CN(C)S(=O)(=O)c2ccc(F)cc2)Oc2c(NC(=O)c3ccc(-c4nccs4)cc3)cccc2C1=O | -0.68 | -16 | -0.3 | 31
Cc1noc(C)c1NC(=O)N(C)C[C@H]1Oc2ccc(NC(=O)Nc3ccc(F)cc3)cc2C(=O)N([C@@H](C)CO)C[C@@H]1C | 0.045 | -8 | 1.0 | -52
CCc1c(C)sc(NC(=O)CSc2nc(-c3ccccc3)cc(C(F)(F)F)n2)c1C#N | x | -22 | 0.3 | x
CCOC(=O)c1c(NC(=O)COc2cc(C)ccc2C)sc2c1CCC2 | x | -5 | 0.8 | x
COc1ccc(S(=O)(=O)Nc2cccc3c2O[C@H](CN(C)Cc2ccc(C(F)(F)F)cc2)[C@@H](C)CN([C@@H](C)CO)C3=O)cc1 | 0.16 | -2 | 0.3 | 26
CC1(C)N=C(NC(=O)NC(=O)c2ccccc2Cl)N(c2ccccc2)O1 | 0.62 | -17 | -0.7 | -30
C[C@@H]1CN([C@H](C)CO)C(=O)c2cccc(NC(=O)C3CCCCC3)c2O[C@@H]1CN(C)C(=O)NC1CCCCC1 | 0.41 | 0 | -0.2 | -6
C[C@H]1CN([C@@H](C)CO)C(=O)c2cc(NC(=O)Cc3cn(C)c4ccccc34)ccc2O[C@H]1CN(C)Cc1ccc(C(=O)Nc2ccccc2N)cc1 | 0.46 | 47 | -3.2 | x
Next records:
SMILES | YB-1 expr inh | MITF inhib | PD-1 reverse act | Shh pathway inh
CC(C)NC(=O)Nc1ccc2c(c1)CC(=O)N([C@@H](C)CO)C[C@H](C)[C@H](CN(C)S(=O)(=O)c1cccs1)O2 | -0.066 | -13 | 4.0 | 16
CCOC(=O)CSc1nc(SCC(=O)OCC)c2c3c(sc2n1)CCC3 | 0.047 | -6 | 1.3 | -57
C[C@@H]1CN([C@H](C)CO)C(=O)Cc2cc(NC(=O)C3CCCCC3)ccc2O[C@@H]1CN(C)Cc1ccc(-c2ccccc2)cc1 | 0.069 | 16 | -4.2 | 43
C[C@@H]1CN([C@@H](C)CO)C(=O)Cc2cc(NC(=O)c3ccncc3)ccc2O[C@@H]1CN(C)C(=O)Nc1cccc2ccccc12 | -0.14 | 10 | x | 18
c1csc(-c2nnc3n2-c2ccccc2SC3)c1 | -0.14 | 8 | 0.3 | -9
C[C@@H]1O[C@@H](O[C@@H]2[C@@H](O)[C@H](Oc3c(-c4ccc(O)cc4)oc4cc(O)cc(O)c4c3=O)O[C@H](CO)[C@H]2O)[C@H](O)[C@H](O)[C@H]1O | -0.0066 | -3 | 2.7 | 4
CC(=O)c1c(C)nc(-c2ccc(Cl)cc2)nc1NC(=O)Cc1ccccc1 | x | 29 | -2.6 | x
C[C@H](CO)N1C[C@H](C)[C@@H](CN(C)Cc2ccc(Oc3ccccc3)cc2)Oc2ccc(NC(=O)NC3CCCCC3)cc2C1=O | -0.0026 | 1 | -2.4 | x
C[C@H](CO)N1C[C@H](C)[C@H](CN(C)Cc2ccc(Cl)c(Cl)c2)Oc2ccc(NC(=O)Nc3cccc4ccccc34)cc2CC1=O | 0.58 | 19 | 0.1 | -16
Cc1ccc(S(=O)(=O)Nc2ccc3c(c2)CC(=O)N([C@H](C)CO)C[C@H](C)[C@H](CN(C)C(=O)Nc2ccc(F)cc2)O3)cc1 | -0.05 | -3 | 3.0 | -11
COc1ccc(NC(=O)CCn2nc(-c3ccccc3)c3ccccc3c2=O)cc1C(N)=O | x | 6 | -2.9 | x
COc1ccc(C(=O)CSc2nnc(-c3ccccc3Cl)n2C)cc1OC | x | -11 | 0.5 | x
Cc1ccc(S(=O)(=O)N(C)C[C@@H]2Oc3c(NC(=O)c4ccc(-c5nccs5)cc4)cccc3C(=O)N([C@H](C)CO)C[C@@H]2C)cc1 | 0.25 | 29 | -3.7 | -7
Cc1ccc(N(C(C)C(=O)Nc2ccc3c(c2)OCCO3)S(C)(=O)=O)cc1 (configuration not stated) | x | -14 | -0.6 | x
C[C@H]1CN([C@@H](C)CO)C(=O)c2cc(NS(=O)(=O)c3cccs3)ccc2O[C@@H]1CN(C)C(=O)NC1CCCCC1 | 0.0048 | -6 | -0.1 | -9
C[C@@H]1CN([C@H](C)CO)C(=O)c2cccc(NC(=O)Nc3ccc4c(c3)OCO4)c2O[C@@H]1CN(C)S(=O)(=O)c1ccc(Cl)cc1 | 0.25 | -7 | x | 32
COc1ccc(NC(=O)N(C)C[C@@H]2Oc3c(NC(=O)C4CCCCC4)cccc3C(=O)N([C@H](C)CO)C[C@H]2C)cc1 | -0.78 | -5 | -1.8 | 11
Cc1ccc(NC(=O)CC2Sc3ccc(C(F)(F)F)cc3NC2=O)c([N+](=O)[O-])c1 (configuration not stated) | x | 10 | 3.4 | x
C[C@@H]1CN([C@@H](C)CO)C(=O)Cc2cc(NC(=O)CCN3CCOCC3)ccc2O[C@@H]1CN(C)C(=O)Nc1ccccc1 | 0.14 | 4 | 0.0 | -17
O=C1OC(c2ccccc2)=N/C1=C\C=C\c1ccccc1 | 0.33 | 6 | 2.4 | -9
Cc1ccc(S(=O)(=O)Nc2ccc3c(c2)C(=O)N([C@@H](C)CO)C[C@H](C)[C@H](CN(C)Cc2ccccc2)O3)cc1 | -0.2 | -2 | -0.4 | x
O=C(CC(C(=O)O)N1CCCCC1)Nc1cccc(Cl)c1 (configuration not stated) | x | -3 | 0.6 | x
O=c1c(-c2cc(O)c(O)c(O)c2)coc2cc(O)c(O)c(O)c12 | -0.15 | -15 | x | -29
CSc1nc(N)nc(SCC(=O)Nc2cccc(F)c2)c1C#N | x | 32 | -1.1 | x
COc1ccc([N+](=O)[O-])cc1NC(=O)COc1ccc(C(C)(C)C)cc1 | x | -56 | 1.3 | x

Four entries from above in another layout.
Each structure is followed by: YB-1 expr inh, MITF inhib, PD-1 reverse act, Shh pathway inh
C[C@@H]1CN([C@H](C)CO)C(=O)Cc2cc(NC(=O)C3CCCCC3)ccc2O[C@@H]1CN(C)Cc1ccc(-c2ccccc2)cc1
 : 0.069, 16, -4.2, 43
C[C@@H]1CN([C@@H](C)CO)C(=O)Cc2cc(NC(=O)c3ccncc3)ccc2O[C@@H]1CN(C)C(=O)Nc1cccc2ccccc12
 : -0.14, 10, x, 18
c1csc(-c2nnc3n2-c2ccccc2SC3)c1
 : -0.14, 8, 0.3, -9
C[C@@H]1O[C@@H](O[C@@H]2[C@@H](O)[C@H](Oc3c(-c4ccc(O)cc4)oc4cc(O)cc(O)c4c3=O)O[C@H](CO)[C@H]2O)[C@H](O)[C@H](O)[C@H]1O
 : -0.0066, -3, 2.7, 4

Carrying on.
SMILES | YB-1 expr inh | MITF inhib | PD-1 reverse act | Shh pathway inh
CC(C)NC(=O)Nc1ccc2c(c1)C(=O)N([C@@H](C)CO)C[C@@H](C)[C@@H](CN(C)Cc1ccc(Oc3ccccc3)cc1)O2 | 0.53 | -9 | -0.1 | 24
O=C1CSCC(=O)N1c1cccnc1 | 0.34 | 6 | 0.1 | -15
C[C@@H]1CN([C@H](C)CO)C(=O)Cc2cc(NC(=O)Nc3cccc4ccccc34)ccc2O[C@@H]1CN(C)Cc1ccc(Oc2ccccc2)cc1 | 0.033 | 14 | -4.7 | 35
C[C@H]1CN([C@@H](C)CO)C(=O)c2cccc(NC(=O)Nc3ccc(F)cc3)c2O[C@H]1CN(C)C(=O)NC1CCCCC1 | 0.021 | 29 | x | -20
COc1ccc(S(=O)(=O)N(C)C[C@H]2Oc3c(NC(=O)c4nc5ccccc5s4)cccc3C(=O)N([C@@H](C)CO)C[C@@H]2C)cc1 | -0.31 | 21 | 1.7 | 34
COc1ccc(S(=O)(=O)Nc2ccc3c(c2)CC(=O)N([C@@H](C)CO)C[C@@H](C)[C@@H](CN(C)Cc2ccc(-c4ccccc4)cc2)O3)cc1 | -0.057 | 0 | 0.6 | 10
O=C1CC(c2ccccc2)N(c2ccc(Cl)cc2Cl)C(=S)N1 (configuration not stated) | -0.58 | 8 | -1.2 | 3
C[C@H](CO)N1C[C@H](C)[C@@H](CN(C)C(=O)Nc2ccc(F)cc2)Oc2c(NC(=O)c3nc4ccccc4s3)cccc2C1=O | 0.00091 | 8 | -0.7 | 21
NC(=O)CN1C(=O)C(O)(C2CCc3ccccc3C2=O)c2ccccc21 (configuration not stated) | x | 11 | 1.4 | x
CCc1cccc(OCC(=O)Nc2ccccc2C(N)=O)c1 | x | -67 | -3.7 | x
Cc1noc(C)c1NC(=O)N(C)C[C@H]1Oc2c(NC(=O)c3nc4ccccc4s3)cccc2C(=O)N([C@H](C)CO)C[C@H]1C | -0.0055 | 2 | 1.1 | 1
C[C@@H]1CN([C@H](C)CO)C(=O)c2cccc(NC(=O)C3CC3)c2O[C@H]1CN(C)C(=O)Nc1ccc(F)cc1 | -0.35 | -5 | 1.1 | 41
Cc1ccc(S(=O)(=O)Nc2ccc3c(c2)CC(=O)N([C@H](C)CO)C[C@@H](C)[C@@H](CN(C)C(=O)Nc2cccc4ccccc24)O3)cc1 | 0.026 | -18 | 1.8 | -42
NCCCCCCNS(=O)(=O)c1cccc2ccccc12 | -0.23 | -2 | 2.0 | 31
COc1ccc(S(=O)(=O)Nc2ccc3c(c2)C(=O)N([C@@H](C)CO)C[C@H](C)[C@@H](CN(C)Cc2ccc(-c4ccccc4)cc2)O3)cc1 | 0.084 | 3 | 0.6 | x
Cc1c(/C=C/c2ccc(Cl)cc2Cl)c(=O)n(-c2ccccc2)n1C | 0.48 | 20 | 0.9 | -19
COc1ccc(S(=O)(=O)N(C)C[C@@H]2Oc3c(NS(=O)(=O)c4ccc(F)cc4)cccc3C(=O)N([C@@H](C)CO)C[C@H]2C)cc1 | -0.22 | -9 | x | -24
C[C@@H]1CN([C@H](C)CO)C(=O)Cc2cc(NC(=O)CCCCCC(=O)Nc3ccccc3N)ccc2O[C@H]1CN(C)S(C)(=O)=O | -0.03 | -10 | 1.9 | x
C[C@@H]1CN([C@@H](C)CO)C(=O)Cc2cc(NC(=O)Cc3cn(C)c4ccccc34)ccc2O[C@@H]1CN(C)Cc1ccc(C(=O)O)cc1 | 0.12 | -1 | 0.8 | -38
Cc1noc(C)c1NC(=O)N(C)C[C@@H]1OCCCC[C@@H](C)Oc2ccc(NC(=O)Nc3ccc(F)cc3)cc2C(=O)N([C@H](C)CO)C[C@@H]1C | -0.51 | 0 | 0.9 | -32
Cc1cccc(-n2c(N)cc(=O)nc2SCC(=O)Nc2ccc3ccccc3c2)c1 | x | -14 | -2.2 | x

Random excerpt: 3 entries already listed
SMILES | YB-1 expr inh | MITF inhib | PD-1 reverse act | Shh pathway inh
C[C@@H]1CCCCO[C@@H](CN(C)Cc2ccc(C(=O)Nc3ccccc3N)cc2)[C@@H](C)CN([C@H](C)CO)C(=O)c2cc(NS(=O)(=O)c3cccs3)ccc2O1 | -0.16 | 15 | -0.2 | x
COC(=O)c1ccc(NC(=O)C2CCN(S(=O)(=O)c3cc(C)ccc3OC)CC2)cc1 | x | 21 | 1.2 | x
CCc1cccc(OCC(=O)Nc2ccccc2C(N)=O)c1 | x | -67 | -3.7 | x

The list is partial; count on the stated rates, not on these rows.
